Source: PubChem
Mtb H37Rv – M. tuberculosis H37Rv growth inhibitors, H37Rv strain (AID 1626); M. tuberculosis H37Rv growth inhibition; higher % means a stronger effect; actives 0.95% (n = 220,000); one-dose inhibition, % at 10 µM; IC50 in µM for titrated hits;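 active means confirmed in a dose series; inconclusive means inhibition above 80% but not taken into the dose series; inactive means below 80% or under 30% at every dose of the series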;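 further: bacteria incubated seven days before Alamar blue readout; 0% = bacteria only wells and 100% = bacteria with antibiotic wells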
Mtb betalactam – beta-lactam sensitization of Mtb H37Rv, H37Rv. M. tuberculosis H37Rv growth with meropenem, percent inhibition; hits of this screen are not shown here. inhibition, % at 25 µM. actives 0.27% (n = 330,000). AID 434955, 2010;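 active means about 74% or more and at least 40 points above the plate without the antibiotic, then above 30% in a dose series; inconclusive means first-round hits that could not be retested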;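 further: growth measured after seven days incubation then overnight dye step; 0% = bacteria only wells and 100% = bacteria with antibiotic; twin plates without the antibiotic show which effects depend on it; some results filed as inactive read as strong as hits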
YopH PTP inh – YopH tyrosine phosphatase inhibitors, primary screen, biochemical, fluorescence Ex485/Em525 | actives 0.16% (n = 140,000) | inhibition, %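 (about 10 µM by stock and volumes)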 | YopH tyrosine phosphatase [Yersinia enterocolitica];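 active means inhibition of 50% or more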;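 further: controls were vehicle for no effect and minimum signal wells for full effect; inactives centre near -20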
RecA intein inh – Mtb RecA intein splicing inhibitors, primary screen, biochemical, fluorescence, HTS | cell-free RecA intein splicing | inhibition, %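 (about 9 µM by stock and volumes)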 | actives 0.75% (n = 290,000); in the data active means inhibition above about 30%; inconclusive means no clear call, values can overlap the other calls;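 further: 0% = vehicle wells and 100% = reference inhibitor control wells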
Target sequence (P9WHJ3 whole entry, looked up): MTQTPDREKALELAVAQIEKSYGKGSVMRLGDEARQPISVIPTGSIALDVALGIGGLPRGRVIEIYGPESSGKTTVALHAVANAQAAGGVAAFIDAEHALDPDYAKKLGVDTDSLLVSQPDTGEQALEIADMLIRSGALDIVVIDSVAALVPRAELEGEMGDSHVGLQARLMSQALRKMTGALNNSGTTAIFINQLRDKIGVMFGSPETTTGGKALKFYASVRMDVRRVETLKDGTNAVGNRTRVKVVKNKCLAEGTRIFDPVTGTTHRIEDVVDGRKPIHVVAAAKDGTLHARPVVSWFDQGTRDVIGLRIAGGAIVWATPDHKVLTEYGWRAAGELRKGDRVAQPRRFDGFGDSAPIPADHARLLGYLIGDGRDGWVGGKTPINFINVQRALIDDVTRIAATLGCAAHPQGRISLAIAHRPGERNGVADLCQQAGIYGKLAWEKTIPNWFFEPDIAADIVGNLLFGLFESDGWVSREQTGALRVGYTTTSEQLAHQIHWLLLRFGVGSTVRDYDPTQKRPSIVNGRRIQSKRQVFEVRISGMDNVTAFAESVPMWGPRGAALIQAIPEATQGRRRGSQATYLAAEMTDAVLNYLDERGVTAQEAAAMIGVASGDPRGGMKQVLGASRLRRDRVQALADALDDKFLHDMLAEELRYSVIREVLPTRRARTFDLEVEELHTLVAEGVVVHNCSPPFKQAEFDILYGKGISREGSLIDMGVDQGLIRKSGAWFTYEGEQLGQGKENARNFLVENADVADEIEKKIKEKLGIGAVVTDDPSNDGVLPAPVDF
Arbovirus inh – antivirals against arbovirus infection, primary screen, cell-based, full library, 10K replicate subset; actives 0.37% (n = 200,000); inhibition, % at 10 µM; arbovirus infection cell-based antiviral screen; AID 1251, 2008;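 active means inhibition from about 30%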;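 further: bluetongue infection of BSR cells; cell survival read as ATP light after 72 h; 0% = infected wells without compound and 100% = uninfected wells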
Arbovirus inh repeat – recorded beside Arbovirus inh, whose call it bears; inhibition, %; measured here: 10K subset replicate screen; many hits read low in the repeat;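 first of two repeat runs on a subset; 0% = infected and 100% = uninfected wells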
Numbers without * were called inactive; ? = inconclusive; . = not tested or not shown.

SMILES | Mtb H37Rv | Mtb betalactam | YopH PTP inh | RecA intein inh | Arbovirus inh | others
O=S1(=O)N=C(Nc2ccc(N3CCOCC3)c(Cl)c2)c2ccccc21 | 0% | -4 | . | -21 | 1
CC(NC(=O)Nc1ccc(F)cc1F)c1ccc2c(c1)OCO2 (configuration not stated) | . | 5 | . | 0.1 | .
Cc1ccc(C)c(NC(=O)COC(=O)CCc2ccc(S(=O)(=O)N3CCOCC3)cc2)c1 | -1% | 0 | . | 2.3 | 0
Nn1nnc2ccccc21 | -9% | -3 | . | -0.8 | .
COCOc1cc(O)c2c(=O)c(OCOC)c(-c3ccc(OCOC)c(OCOC)c3)oc2c1 | 4% | -3 | . | 1.8 | .
Cc1ccc(NC(=O)COC(=O)CCC(=O)c2ccc(Cl)cc2)cc1S(=O)(=O)N(C)C | 1% | -1 | -28 | -0.4 | 13
CCN(C(=O)c1cnc(OC)cc1C(F)(F)F)c1ccc(Cl)cc1 | -4% | -2 | . | -0.9 | .
O=C(OC(C(=O)NCc1ccco1)C(OC(=O)c1ccccc1)C(=O)NCc1ccco1)c1ccccc1 (configuration not stated) | -2% | -1 | -22 | 0.8 | 2
COC(=O)c1c(NC(=O)c2ccco2)sc(C(=O)N(C)C)c1C | -5% | -12 | -21 | -0.1 | -1
COc1ccc(C(=O)NNC(=S)NC(=O)/C=C/c2cccs2)cc1 | ? | 99 | . | 3.1 | -26
COc1cccc(CC(=O)N(CCC2=CCCCC2)c2c(N)n(Cc3ccccc3)c(=O)[nH]c2=O)c1 | . | -1 | . | -0.8 | .
Cc1cc(C)c(N(C(=O)c2csnn2)C(C(=O)NC2CCCC2)c2ccncc2)c(C)c1 (configuration not stated) | . | 2 | . | -4.3 | .
CCCCC(=O)Nc1ccccc1C(C)C | -3% | 8 | . | -0.6 | -2
COC(C[C@@H]1O[C@@H]1[C@H](O)COCc1ccccc1)OC | -11% | -6 | . | . | .
COc1ccc(-c2[nH]ncc2CN2CCC(OCc3ccccc3)CC2)c(F)c1 | -4% | 2 | . | -2.8 | 7
O=S1(=O)CCOC[C@H](CC2CCCCC2)N1Cc1ccccc1F | . | 4 | . | 5.7 | .
Nc1c(-c2ccccc2)cnn1-c1ccc(C(=O)O)cc1 | -4% | ? | -12 | 3.8 | 5
O=c1nc(N2CCOCC2)nc(N/N=C/c2ccc3c(c2)OCO3)[nH]1 | 1% | -5 | . | -4.2 | 6
COc1ccc(C(C(=O)NCc2ccccc2)N(C(=O)c2snc(C(N)=O)c2N)C2CCCC2)cc1 (configuration not stated) | . | 2 | . | -0.7 | .
O=C1NC2(CCSC2)C(=O)N1CC(=O)N(Cc1ccccc1)C1CCS(=O)(=O)C1 (configuration not stated) | -8% | 3 | . | -2.5 | .
CN(C)S(=O)(=O)c1ccc(C(=O)Nc2nnc(-c3cccs3)o2)cc1 | ? | 89 | . | . | 11
COc1cccc(/C=N/NC(=O)CCC(=O)Nc2ccc(Br)cc2)c1 | . | 6 | . | -0.7 | .
O=C(CCN1CCc2ccccc2C(O)(c2ccccc2)C1)c1ccc2c(c1)OCCO2 (configuration not stated) | 0% | 93 | -28 | 1.9 | .
CCn1ccnc1CN(C)C(=O)C1CCC(=O)N(Cc2cccc(F)c2)C1 (configuration not stated) | . | 10 | . | 1.1 | .
O=C(COC(=O)COc1ccccc1[N+](=O)[O-])Nc1ccccc1Br | -2% | -1 | -19 | -0.6 | 0
Cc1ccc(C(=O)Nc2ncccc2C)cc1S(=O)(=O)N1CCCCC1 | . | -15 | . | 2.2 | .
CC(=O)N1CCOc2ccc(S(=O)(=O)N(C)c3ccc(C)cc3)cc21 | . | -2 | . | 2.1 | .
COc1ccccc1CCNC(=O)CSc1nnc2ccc(-c3cccnc3)nn12 | -1% | 5 | . | -0.3 | 6
O=C(NC(=S)Nc1ccc(S(=O)(=O)Nc2nccs2)cc1)c1cccc(F)c1 | -5% | 2 | -36 | -3.4 | -8
COc1ccccc1-n1cnc2cc(C(=O)NCc3ccco3)ccc21 | 2% | 45 | -18 | 1.9 | -3
O=C(NC1CCCCNC1=O)c1ccc(Cl)cc1 (configuration not stated) | 19% | 0 | -24 | -2.1 | -3
CN(C(=O)NC1CC(=O)N(c2ccc3c(c2)OCCO3)C1)c1ccccc1 (configuration not stated) | . | -1 | . | 0.9 | .
O=C(NNc1cccc([N+](=O)[O-])c1)/C(=C\c1cccnc1)NC(=O)c1ccccc1 | ? | 94 | . | 2.8 | .
CCn1cc(C(=O)O)c(=O)c2cc(F)c(N3CCN(C(=S)NC(=O)c4ccccc4Cl)CC3)cc21 | 30% | 97 | . | 0.5 | .
CCN(CCO)c1ncnc2c1sc1nc(C(C)C)c3c(c12)CC(C)(C)OC3 | 1% | 8 | -48 | -0.4 | -3
COc1ccc(C(=O)N2CCCC(c3nc(-c4cccs4)no3)C2)cc1OC (configuration not stated) | -4% | -5 | -25 | 0.1 | 5
CCC(=O)Nc1ccc(NC(=O)c2ccccc2)nc1 | -5% | 2 | . | -1.0 | -6
COc1ccccc1/C=C/C=N/n1c(-c2ccc(Cl)cc2Cl)n[nH]c1=S | 14% | 0 | . | 1.3 | .
O=C(Nc1sc2c(c1C(=O)O)CCCC2)c1ccccc1Cl | . | 5 | . | 1.9 | .
Cc1ccc(C)c(S(=O)(=O)N2CCN(C(=O)c3ccc(-n4cncn4)c([N+](=O)[O-])c3)CC2)c1 | . | -2 | . | 1.2 | .
CCNc1nc(-c2ccc(OC(F)F)cc2)c(C)s1 | -2% | -3 | . | -1.6 | -10
CCCc1nnc(NC(=O)c2nc(S(=O)(=O)Cc3ccc(C)cc3)ncc2Cl)s1 | . | -1 | . | 85* | .
Cc1ccc(NC(=O)c2ccc(N3CCOCC3)c([N+](=O)[O-])c2)cc1S(=O)(=O)N1CCOCC1 | 6% | 10 | -33 | 1.0 | 13
CCOC(=O)N1CCN(C(=O)Cn2cnc3ccccc3c2=O)CC1 | 0% | 4 | . | -1.7 | 5
c1ccc(OCc2nnc3n2CCCCC3)cc1 | -2% | -1 | . | 1.3 | .
COc1ccc(NC(=O)CN2C(=O)COc3ccc(S(=O)(=O)N4CCCCC4)cc32)cc1OC | . | 0 | . | 0.9 | .
Cc1ccc(C(=O)OCC(=O)Nc2sc3c(c2C#N)CCCCC3)cc1NC(=O)c1ccco1 | -1% | 49 | -29 | -0.2 | 7
Cc1cc(OC(=O)N(C)C)nc2c1c(C)nn2C | -5% | -9 | . | 1.0 | .
Cc1nc2c(C)cccn2c(=O)c1NC(=O)c1ccc2c(c1)OCO2 | . | -2 | . | -2.2 | .
CCOC(=O)C1=C(C)C2C3C(=O)N(c4cc(C)ccc4C)C(=O)C3C1(C)C1C(=O)N(c3cc(C)ccc3C)C(=O)C21 (configuration not stated) | 16% | 3 | -22 | -1.4 | 3
CS(=O)(=O)N1CCCC(C(=O)NCc2cccs2)C1 (configuration not stated) | -17% | 6 | -38 | 1.5 | 3
COc1ccc(CN2CNc3nc4ccccc4n3C2)cc1 | -12% | 4 | -17 | 2.5 | 5
CC(C)(C)c1ccc(C(=O)N/C(=C\c2cccs2)C(=O)NCc2ccco2)cc1 | 5% | ? | -36 | 4.6 | -7
CCC(C)C(=O)Nc1nccs1 (configuration not stated) | -7% | -1 | . | -1.6 | 6
COc1ccc2oc(C(=O)OCC(=O)Nc3ccccc3OC)c(C)c2c1 | . | -2 | . | -1.8 | .
CC(C)Oc1ccc(C(CC(=O)O)NC(=O)Cc2ccccc2)cc1 (configuration not stated) | . | 4 | . | 0.3 | .
O=C1CCC(C(=O)N2CCCCO2)CN1Cc1cccc(C(F)(F)F)c1 (configuration not stated) | . | 0 | . | 0.9 | .
CCOc1c(OC(C)=O)ccc(/C=C/c2ccc3cccc(OC(C)=O)c3n2)c1[N+](=O)[O-] | . | 99 | -45 | 7.8 | -40
COc1ccc(C2=NN(C(=O)CSc3cn(C)c4ccccc34)C(c3ccc(OC)cc3)C2)cc1 (configuration not stated) | 13% | 8 | -43 | 11 | 1
Cc1cc(NS(=O)(=O)c2ccccc2)n(-c2ccccc2)n1 | -2% | -5 | 21 | -1.4 | 3
Later entries.
SMILES | Mtb H37Rv | Mtb betalactam | YopH PTP inh | RecA intein inh | Arbovirus inh | others
Cn1c(C(=O)N(Cc2ccccc2)Cc2ccccn2)cc2sccc21 | 1% | -9 | -1 | 9.6 | 1
COc1ccc(Cl)cc1NC(=S)NCCC(c1ccccc1)c1ccccc1 | . | 3 | -29 | 2.7 | 4
Cc1cccc(NS(=O)(=O)c2ccc(-c3ccc(=O)[nH]n3)o2)c1 | . | -5 | . | -4.0 | .
O=C(NC1CCN(Cc2ccccc2)CC1)c1ccc(N2CC3CC(C2)c2cccc(=O)n2C3)c([N+](=O)[O-])c1 (configuration not stated) | -7% | -1 | . | 2.1 | 6
CCOc1cc(/C=N/NC(=O)c2cccnc2)ccc1OCC(=O)N(C)C | -6% | 7 | . | 0.7 | 19
COP(=O)(OC)Oc1ccc(C(O)C(Cl)(Cl)Cl)cc1 (configuration not stated) | -3% | -6 | . | 0.2 | .
CCOc1ccc(/C=C2\SC(=S)N(Nc3ccccc3)C2=O)cc1OC | 29% | -7 | -15 | -2.4 | -14
COc1ccc(OCC(=O)NNC(=S)NC(=O)C2CC2)cc1 | . | -1 | . | 9.5 | .
COc1ccccc1NS(=O)(=O)c1cccc(C(=O)NCC(c2ccccc2OC)N2CCCC2)c1 (configuration not stated) | . | -6 | . | -3.3 | .
CN1CCN(Cc2cc(=O)oc3cc4c(cc23)CCC4)CC1 | -6% | ? | -15 | 0.9 | 6
CCCC1=NN(C(=O)Cc2ccc(OC)cc2)C(O)(C(F)(F)F)C1 (configuration not stated) | 1% | -5 | -36 | 0.6 | -2
O=C(c1ccccc1NS(=O)(=O)c1ccccc1)N1CCCCCC1 | . | -6 | . | -1.3 | .
COc1ccc([N+](=O)[O-])cc1NC(=O)CCN1CCN(c2ccccc2)CC1 | 0% | -11 | . | -0.6 | -4
Cc1cc(C)c(OCC(=O)NCC(C)(C)N2CCOCC2)c(C)c1 | . | 3 | . | 0.9 | .
NNC(=O)C1CC1c1ccc(Cl)cc1 (configuration not stated) | -3% | 1 | -10 | 1.6 | -2

Filtered by structure: those above containing a furan ring, fused or not
SMILES | Mtb H37Rv | Mtb betalactam | YopH PTP inh | RecA intein inh | Arbovirus inh | others
O=C(OC(C(=O)NCc1ccco1)C(OC(=O)c1ccccc1)C(=O)NCc1ccco1)c1ccccc1 (configuration not stated) | -2% | -1 | -22 | 0.8 | 2
COC(=O)c1c(NC(=O)c2ccco2)sc(C(=O)N(C)C)c1C | -5% | -12 | -21 | -0.1 | -1
COc1ccccc1-n1cnc2cc(C(=O)NCc3ccco3)ccc21 | 2% | 45 | -18 | 1.9 | -3
Cc1ccc(C(=O)OCC(=O)Nc2sc3c(c2C#N)CCCCC3)cc1NC(=O)c1ccco1 | -1% | 49 | -29 | -0.2 | 7
CC(C)(C)c1ccc(C(=O)N/C(=C\c2cccs2)C(=O)NCc2ccco2)cc1 | 5% | ? | -36 | 4.6 | -7
COc1ccc2oc(C(=O)OCC(=O)Nc3ccccc3OC)c(C)c2c1 | . | -2 | . | -1.8 | .
Cc1cccc(NS(=O)(=O)c2ccc(-c3ccc(=O)[nH]n3)o2)c1 | . | -5 | . | -4.0 | .

Two records picked at random from those above:
SMILES | Mtb H37Rv | Mtb betalactam | YopH PTP inh | RecA intein inh | Arbovirus inh | others
COc1ccc(OCC(=O)NNC(=S)NC(=O)C2CC2)cc1 | . | -1 | . | 9.5 | .
O=C(NC1CCN(Cc2ccccc2)CC1)c1ccc(N2CC3CC(C2)c2cccc(=O)n2C3)c([N+](=O)[O-])c1 (configuration not stated) | -7% | -1 | . | 2.1 | 6

Going on with the list:
SMILES | Mtb H37Rv | Mtb betalactam | YopH PTP inh | RecA intein inh | Arbovirus inh | others
O=C1c2ccccc2C(=O)N1OCc1c(F)cccc1Cl | 3% | -7 | . | 3.2 | 2
O=C(CC1CCCCC1)c1c(O)c2ccccc2oc1=O | -7% | 100 | 1 | 1.7 | -20
CCCC(=O)C1=C(O)C(C(=O)OC)C(C)(C)CC1=Nc1cccc([N+](=O)[O-])c1 (configuration not stated) | . | 2 | . | 2.3 | .
O=C1c2ccccc2C(Nc2ccc3c(c2)OCCO3)N1c1ccc(Cl)cn1 (configuration not stated) | 0% | -1 | -44 | 0.8 | 4 | Arbovirus inh repeat=2
COC(=O)c1ccc(COc2ccccc2OC)o1 | . | 49 | . | 1.0 | .
COCCNC(=O)c1cn(C)c2ccc(S(=O)(=O)N3CCCCC3)cc2c1=O | . | -4 | . | -1.8 | .
COc1ccccc1OCC(=O)Nc1cc(NC(=O)COc2ccccc2OC)cc(C(=O)O)c1 | . | 6 | . | 2.3 | .
O=C(CCC(=O)N1CCN(c2ccc(O)cc2)CC1)c1cccs1 | 11% | -14 | . | -8.9 | .

The list is partial (hit frequency here may not be typical).
